AmpC inh no det – blocks E. coli AmpC beta-lactamase in absence of detergent | P00811 | AmpC nitrocefin hydrolysis, absorbance 480 nm, no detergent; potencies from a single point are estimates | Potency, µM (series often up to 28.7 µM), without a hit: at the top dose activity change, negative = inhibition | actives 1.8% (n = 71,000) | AID 585; active = falling curve, for most hits resting on a single point; inconclusive = weak or doubtful change; inactive = flat or rising curve; also: % of control where 0% means no effect; about half of the hits show no inhibition at the top dose; a quarter of the inactives give rising signals
Target sequence (P00811 whole entry, looked up): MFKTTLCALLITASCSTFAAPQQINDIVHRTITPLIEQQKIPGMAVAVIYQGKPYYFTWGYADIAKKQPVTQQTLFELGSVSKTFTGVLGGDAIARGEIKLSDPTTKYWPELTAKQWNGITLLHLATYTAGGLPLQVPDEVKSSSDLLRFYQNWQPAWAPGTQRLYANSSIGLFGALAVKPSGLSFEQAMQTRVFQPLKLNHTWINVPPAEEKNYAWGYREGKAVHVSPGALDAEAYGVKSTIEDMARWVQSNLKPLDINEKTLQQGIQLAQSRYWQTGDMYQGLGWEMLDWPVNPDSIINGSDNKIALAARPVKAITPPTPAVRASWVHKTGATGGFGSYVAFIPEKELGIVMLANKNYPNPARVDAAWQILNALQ
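AmpC, 20 mM phosphate pH 7.0; 15 min cpd preinc, RT; start with nitrocefin (800 uM stock); A480 kinetic read, 20 s intervals, 4 min. No-enzyme wells = negative control.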
An asterisk follows results filed as active; & = joins results of further samples; [ ] = dose if it differs, or a comment. Potency is read from the fitted curve at half-maximal effect.

SMILES	AmpC inh no det
COc1ccc(C2C(=O)N(C3CCCCC3)CC(=O)N2Cc2ccc3c(c2)OCO3)cc1 (stereo unspecified)	42%
COc1ccc(-n2c(N)c(Br)c(=O)[nH]c2=O)cc1	-2%
Cc1nc2cnc(Oc3cccc(Cl)c3)nc2n(Cc2ccc(F)cc2)c1=O	96%
CCOC(=O)C1CCCN(C(=O)N2CCOCC2)C1 (stereo unspecified)	5%
O=C(CN1CCN(c2ncccn2)CC1)N(Cc1ccccc1)c1ccc(F)cc1	111%
N=C1C(c2ccccc2)=C(O)C2CCc3ccccc3N12 (stereo unspecified)	-14%
COc1cccc(C(=O)N2CCCc3ccccc32)c1	23%
COCCn1c(=S)[nH]c2cc(C(=O)N3CCC(C(N)=O)(N4CCCCC4)CC3)ccc2c1=O	18%
CCOc1cc(C(=O)Nc2ccc3c(c2)OCO3)ccc1OC(F)F	-16%
CCOC(=O)C1C(=O)NC(N2CCN(CC)CC2)=NC1c1ccccc1 (stereo unspecified)	-6%
CC(=O)N1C(=O)C2(C(C#N)=C(N)Oc3c2c(C)nn3-c2ccccc2)c2ccccc21 (stereo unspecified)	32%
O=C(Nc1nccs1)c1ccc(S(=O)(=O)NCC2CCCCC2)cc1	-4%
O=C(Nc1ccccc1N1CCCC1)c1ccco1	2%
CCc1nnc(NC(=O)c2cccc(S(=O)(=O)N3CCN(c4ccccc4)CC3)c2)s1	7%
COc1ccccc1-c1c(C)nn2c(C)c(C(C)=O)cnc12	30%
CCCCc1ccc(NC(=O)CC(C)=O)cc1	25%
CCCCNC(=O)C(C#N)c1nc2ccccc2nc1N1CCCC1 (stereo unspecified)	4%
Clc1nc(Cl)nc(Cl)n1	-14%
Cc1cccc(C)c1-n1nnnc1SCSc1nnnn1-c1c(C)cccc1C	-19%
O=C(Cn1cnc2c(nnn2Cc2ccc(Cl)cc2)c1=O)NC1CCCC1	-8%
O=C(NCc1cccs1)C1CCN(S(=O)(=O)c2cccc3cccnc23)CC1	16%
Cn1c(-c2ccc(Br)o2)nc2ccccc21	5%
COc1ccccc1-c1nnc(Nc2nc3c(OC)cccc3s2)o1	0%
O=C(NCc1cccs1)c1ccccc1C(=O)NCc1cccs1	-2%
CCn1c(SCC(=O)Nc2cc(C)ccc2C)nnc1-c1cnccn1	14%
CCOc1ccc2nc(SCc3ccc(C(=O)OC)o3)[nH]c2c1	4%
CCN(CC)S(=O)(=O)c1cc(Br)c(C)cc1OC	19%
O=c1c2cc(-c3ccccc3)sc2ncn1/N=C/c1ccco1	-2%
O=C(O)CN(Cc1ccco1)S(=O)(=O)c1ccccc1	2%
O=c1cnnc(SCCc2ccccc2)[nH]1	18%

Gathered by group: the compounds so far containing a Cl atom.
SMILES	AmpC inh no det
Cc1nc2cnc(Oc3cccc(Cl)c3)nc2n(Cc2ccc(F)cc2)c1=O	96%
Clc1nc(Cl)nc(Cl)n1	-14%
O=C(Cn1cnc2c(nnn2Cc2ccc(Cl)cc2)c1=O)NC1CCCC1	-8%

Further results follow:
SMILES	AmpC inh no det
CCOC(=O)N1CCN(c2c(N3CCOCC3)c(=O)c2=O)CC1	4µM*[single pt active]
Cc1csc(=NC(=O)c2ccccc2)n1Cc1ccco1	6%
O=C(Nc1cccc(F)c1)C1C2C=CC3(CN(CCCN4CCOCC4)C(=O)C13)O2 (stereo unspecified)	-12%
COC(=O)c1sccc1NC(=O)c1cc2c(s1)CCCC2	-6%
Cc1ccc(S(=O)(=O)NC2=NCN(Cc3ccccc3)CN2)cc1	-4%
O=C(NC1CC2CCC(C1)N2C(=O)NCc1ccccc1)C1CC1 (stereo unspecified)	4%
CNC(=O)c1cc2cc(OC)ccc2n1CCN(C)C	-1%
Cc1cc(-c2cc(C)c(N)c(C)c2)cc(C)c1N	4%
C=CCNC(=O)CN(c1cccc(Br)c1)S(C)(=O)=O	-2%
Cc1ccc(C)c(N2CCN(C(c3ccncc3)c3nnnn3Cc3ccccc3)CC2)c1 (stereo unspecified)	114%
NC(=O)NC(Cc1ccccc1)C(=O)O (stereo unspecified)	0%
CCOc1ccc(OCC)c(NC(=O)CN2CCN(c3ccc(C)cc3C)CC2)c1	20%
COc1ccccc1NC(=O)COC(=O)c1ccc(S(=O)(=O)NCc2ccco2)cc1	-9%
CC1(C)CC(=O)C=C(NCCN2CCN(C(=O)Nc3ccc(Cl)c(Cl)c3)CC2)C1	120%
COc1ccc(NC(=O)CSc2nc3c(c(=O)n2-c2ccccc2)SCC3)c(OC)c1	26%
COc1ccc(S(=O)(=O)NCc2cn3c(C)csc3n2)cc1F	2%
Cc1cccc(C2CC(c3ccc(Cl)cc3)Nc3nc(N)nn32)c1 (stereo unspecified)	4µM*[single pt active]
CCOCCCNC(=O)c1ccc2c(c1)ncn2C1CCCC1	9%
CCNc1oc(-c2cccc3ccccc23)nc1C#N	4%
Cc1cc(C)n2cc(CSc3nnnn3C)nc2n1	10%
COc1cc(OC)cc(C(=O)Nc2cccc(C(C)=O)c2)c1	7%
COc1ccc(CN(CC(=O)NCc2ccco2)C(=O)CCC(=O)Nc2ccccn2)cc1	28%
CC(C)NC(=O)Cn1c(SCC(=O)N2c3ccccc3CC2C)nc2ccccc21 (stereo unspecified)	36%
O=C1CN2C(=Nc3ccc(Br)cc3C2c2ccccc2)CCN1 (stereo unspecified)	64%
CCN1C(=O)NC(c2cc(Br)ccc2OC)C(C(=O)OC)=C1C (stereo unspecified)	32%
Fc1ccccc1COc1ccc(/C=N/n2cnnc2)cc1	68%
Cc1nccn1-c1c2c(c(C#N)c3nc4ccccc4n13)CCCC2	-2%
COC(=O)c1ccc(C(NC(=O)c2ccco2)[C@]2(C)C[C@H]2C2CCCCC2)cc1 (stereo partly specified)	30%
CC(C)CCNC(=O)C1CCN(S(=O)(=O)c2ccc3c(c2)CCC(=O)N3)CC1	15%
CCOc1cc(S(=O)(=O)N2CCC(Cc3ccccc3)CC2)c(OCC)cc1-n1cnnn1	43%
CS(=O)(=O)Nc1ccc(C(=O)NCc2cccnc2)cc1	-2%
COc1cccc(C2/C(=C(/O)c3ccccc3)C(=O)C(=O)N2CCCC(=O)O)c1 (stereo unspecified)	-4%
COc1ccc2c(CC#N)c[nH]c2c1	-9%
Cc1occc1-c1nnc(SCc2cc(=O)n3cc(Br)ccc3n2)n1C	5%
Cc1[nH]nc(-c2ccc(O)c(C)c2O)c1-c1cnn(-c2ccccc2)c1	-22%
Cc1ccc(-c2nc(Nc3ccccc3)n[nH]2)cc1	-16%
C[C@H](CS)C(=O)N1CCC[C@H]1C(=O)O	14%
Cc1cc(Nc2ccc(C)c(Br)c2)n2nc(C)nc2n1	33%
NC1=NC(c2ccccc2Cl)n2c(nc3ccccc32)N1 (stereo unspecified)	4%
OCCn1nc2c3ccccc3nc-2n(-c2ccccc2)c1=S	0%
Cc1cc(-c2nnc(-c3ccccc3)c(-c3ccccc3)n2)c(C)o1	10%
CCOC(=O)Cc1nnc(NC(=O)CSc2nnc3c4ccccc4n(C(C)C)c3n2)s1	59%
CCN(CC)CCNC(=O)c1cc2c(-c3ccc(Cl)cc3)nn(C)c2s1	4µM*[single pt active]
COCCOC(=O)C1=C(C)NC(=O)NC1c1c(F)cccc1Cl (stereo unspecified)	7%
CCC(OC(=O)c1cccs1)C(=O)NCc1ccco1 (stereo unspecified)	-12%
O=C(CN1C(=O)c2cccc3cccc1c23)Nc1ccccc1C(=O)NCc1ccco1	-5%
Cc1nnc2sc(-c3cccc4ccccc34)nn12	36%
CC(NC(=O)CCNS(=O)(=O)c1ccc2c(c1)c(=O)n(C)c(=O)n2C)c1ccccc1 (stereo unspecified)	9%
Cc1cc(OCC(=O)N2CCCC2)cc(C)c1Cl	40%
CCN(CC)CCN1C(=O)C2C3c4ccccc4C(c4ccccc43)C2C1=O (stereo unspecified)	47%
CCOc1ccc(-c2nnc(-c3ccco3)o2)cc1	24%
Cc1ccc(/C=N/c2sc3c(c2C#N)CCCCC3)o1	-13%
CCc1ccc(OCc2nnc(SCCN3CCOCC3)n2CC)cc1	94%
OCCNc1c2c(nc3ccccc13)CCCC2	-15%
COC(=O)c1ccc(NC(=O)c2ccc(N(C)S(C)(=O)=O)cc2)cc1	6%
COc1ccccc1NS(=O)(=O)c1ccc(C)c(C(=O)NCC2CCCO2)c1 (stereo unspecified)	7%
CC(=O)N1CCC(N(CCN2CCOCC2)C(=O)Nc2ccc(Cl)c(Cl)c2)CC1	95%
C=CCN1C(=O)C(O)(CC(=O)c2ccc(N)cc2)c2ccccc21 (stereo unspecified)	1%
COc1cc(NC(=O)C2CCCN(S(=O)(=O)c3cnc[nH]3)C2)cc(OC)c1 (stereo unspecified)	7%
O=C(Nc1ccccc1F)C1C2C=CC3(O2)C1C(=O)N(c1cccnc1)C3C(=O)NC1CCCCC1 (stereo unspecified)	6%

Gathered by group, the compounds so far containing a cyano group.
SMILES	AmpC inh no det
CC(=O)N1C(=O)C2(C(C#N)=C(N)Oc3c2c(C)nn3-c2ccccc2)c2ccccc21 (stereo unspecified)	32%
CCCCNC(=O)C(C#N)c1nc2ccccc2nc1N1CCCC1 (stereo unspecified)	4%
CCNc1oc(-c2cccc3ccccc23)nc1C#N	4%
Cc1nccn1-c1c2c(c(C#N)c3nc4ccccc4n13)CCCC2	-2%
COc1ccc2c(CC#N)c[nH]c2c1	-9%
Cc1ccc(/C=N/c2sc3c(c2C#N)CCCCC3)o1	-13%

Remaining list, next part:
SMILES	AmpC inh no det
Cn1c(Sc2nc3ccccc3n2C)nc2ccccc21	12%
CCCCCCCCCCCCCCCC[N+](C)(C)CCN(Cc1ccc(OC)cc1)c1ncccn1	106%[12.8 µM]
O=C(O)C1CCCCC1C(=O)Nc1ccc2c(c1)CCC2 (stereo unspecified)	-3%
O=C(O)C1(C(=O)O)CCN(S(=O)(=O)c2ccccc2)CC1	1%[5.75 µM]
O=C(CSc1nnc(-c2cccnc2)o1)c1cc2ccccc2oc1=O	-8%
O=C(CC1C(=O)NCCN1C(=O)Nc1ccccc1)Nc1ccc2c(c1)OCCO2 (stereo unspecified)	40%
O=C(O)CCOc1ccc2c(c1)OCCO2	-10%
OCCN1CCN(CC(O)COc2ccc3ccccc3c2)CC1 (stereo unspecified)	11%
CNC(=O)Cn1c(=O)n(C)c2ccccc21	-6%
COc1ccc(OCCOC(=O)c2cccc(-n3cnnn3)c2)cc1	1%
CC(C)(C)C(=O)/C=C(\N)c1ccncc1	-4%
CC(=O)N1CCN(S(=O)(=O)c2ccc(S(=O)(=O)NC3CC3)cc2)CC1	9%
Cc1ccc(C(c2nnnn2CS(=O)(=O)c2ccc(C)cc2)N2CCC(C(N)=O)CC2)cc1 (stereo unspecified)	115%
Cn1c(=O)c(=O)n(C)c2cc(S(=O)(=O)N3CCCCCC3)ccc21	9%
CN(Cc1cc2ccccc2[nH]c1=O)C(=O)C1CCCCC1	14%
O=C(Nc1ccc2c(c1)OCO2)c1cc2ncc(Br)cn2n1	16µM*[single pt active]
O=C(O)COc1ccc(Cl)cc1Cl	-3%&-14%
COC(=O)C1=C(C)Nc2nc(-c3ccccc3)nn2C1c1ccc(C)o1 (stereo unspecified)	61%
O=C(NCc1ccco1)C(NS(=O)(=O)c1cccc2nsnc12)c1ccccc1 (stereo unspecified)	-8%
Cc1cccc(NC(=O)CSc2nnc(CSc3nc(C)cc(C)n3)o2)c1	48%
O=C(NCc1cccnc1)c1cc(-c2ccco2)on1	-15%
Cc1cc(NC(=O)c2cc3nc4c(c(C(F)(F)F)n3n2)CCc2ccccc2-4)no1	7%
Cc1ccc(C(=O)N(CN2CCCC2=O)c2ccc(F)cc2)cc1C	32%
COc1ccccc1-c1noc(CCC(=O)Nc2cccc(C(F)(F)F)c2)n1	28%
Cc1ccc(C)c2[nH]c(=O)c(CCNC(=O)c3ccc4c(c3)OCO4)cc12	-2%
Cc1csc(NC(=O)CNS(=O)(=O)c2cccs2)n1	-13%
COCCCNC(=O)c1ccc(CS(=O)(=O)c2ccc(OC)cc2)o1	4µM*[single pt active]
CCC(=O)N1CCc2cc(Br)cc(S(=O)(=O)CCC(=O)NCc3ccco3)c21	-1%
CC1(C(=O)Nc2nccs2)Cc2ccccc2C(=O)O1 (stereo unspecified)	68%
CCOC(=O)C1=C(C)OC(N)=C(C#N)C1c1c(C)nn(-c2ccc(C)cc2)c1Cl (stereo unspecified)	82%
O=c1ccn([C@H]2O[C@H](CO)[C@@H](O)[C@@H]2O)c(=O)[nH]1	-1%
C=CCn1c(=N)c(C(=O)NCCCOC)cc2c(=O)n3ccccc3nc21	-4%
COc1ccc(N2C(=O)C(Cl)=C(N3CCN(Cc4ccccc4)CC3)C2=O)cc1	40%
CCOC(=O)/C=C1\SCC(=O)N1CCOc1cccc(Br)c1	29%
Cn1cc(C(=O)NC2CCCCCCC2)c(=O)c2cc(S(=O)(=O)N3CCCC3)ccc21	63%
Cc1c(C(=O)c2ccc3ccccc3c2)c2cccc3c2n1[C@H](CN1CCOCC1)CO3	115%
CCCN1C2CCCC1CC(NC(=O)Nc1cccc(C(C)=O)c1)C2 (stereo unspecified)	-7%
COCCNC(=O)Cc1ccc(Br)cc1	2%
CCCCOc1ccc(-c2nnn(CC(=O)NCc3ccco3)n2)cc1	7%
O=C(CSc1nnnn1C1CCCC1)N1CCCc2ccccc21	4%
CSCC[C@H](NC(=O)OC(C)(C)C)c1nnc(SCC(N)=O)o1	13%

Given with bars between the fields: entries from further up
mol | AmpC inh no det
O=c1ccn([C@H]2O[C@H](CO)[C@@H](O)[C@@H]2O)c(=O)[nH]1 | -1%
C=CCn1c(=N)c(C(=O)NCCCOC)cc2c(=O)n3ccccc3nc21 | -4%
COc1ccc(N2C(=O)C(Cl)=C(N3CCN(Cc4ccccc4)CC3)C2=O)cc1 | 40%

Screening results: PubChem BioAssay, National Center for Advancing Translational Sciences (NCATS)

A portion of the library (hit frequency here may not be typical).
